Beta cell apopt – beta cell apoptosis inhibition. INS-1E cytokine-induced death, ATP luminescence, 48 h; percent of positive-control rescue, neutral wells zero. protection from apoptosis, % (no concentration beside the values). 300,000 compounds, 0.8% hits;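 active means all replicates at 75% or more, or half of them and the mean; inconclusive means half reach 75% but not the mean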;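 further: 0% = cytokine-treated negative control wells and 100% = positive control rescue; higher means more ATP so stronger rescue from cytokine killing; wells of about 40 µL received 100 nL stock; the first replicate is given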
Calb FLC – affects C. albicans growth with fluconazole | C. albicans CaCi-2 (fluconazole-resistant clinical isolate) + fluconazole, Alamar Blue growth, 48 h | growth inhibition, % (test concentration not listed) | 300,000 compounds, 0.57% hits;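 active means most replicates above 75%; inconclusive means exactly half above 75%; inactive means most below 75%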;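 further: all wells also contain fluconazole at 8 µg/ml as a sub-toxic cotreatment; 0% = median of DMSO wells and 100% = median of geldanamycin control wells; wells of about 8 µL received 7.5 nL stock; the first replicate is given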
Bfl-1 A1 inh – inhibitors of the anti-apoptotic protein A1, read as caspase activation; 330,000 compounds, 0.066% hits; MEF A1-2A-BIM cells, Caspase-Glo 3/7 luminescence, 3 h; percent of clofoctol response, vehicle zero; AID 2462; caspase activation, % (no concentration beside the values);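 active means over half of replicate activation scores above 10%, or exactly half above 10 with the replicate mean above 10; inconclusive means replicate mean below 10 yet half the replicates above 10; inactive means over half of replicates below 10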;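 further: wells of about 30 µL received 50 nL stock; many hits fall short of the cut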
Beta2AR agonist – activates human beta-2 adrenergic receptor causing internalization | 340,000 compounds, 0.43% hits | Am2.2-beta2AR cells, FAP receptor internalization, flow cytometry; reference of the scale not given here | response, % (test concentration not listed);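 active means response above a set limit, near 3 SD of response in nonfluorescent compounds, cut at about 42% in these data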;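 further: stock transfer was 100 nL into about 11 µL; a reference agonist was the positive control; negative values mostly stem from fluorescent compounds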
Target sequence (P07550 whole entry, looked up): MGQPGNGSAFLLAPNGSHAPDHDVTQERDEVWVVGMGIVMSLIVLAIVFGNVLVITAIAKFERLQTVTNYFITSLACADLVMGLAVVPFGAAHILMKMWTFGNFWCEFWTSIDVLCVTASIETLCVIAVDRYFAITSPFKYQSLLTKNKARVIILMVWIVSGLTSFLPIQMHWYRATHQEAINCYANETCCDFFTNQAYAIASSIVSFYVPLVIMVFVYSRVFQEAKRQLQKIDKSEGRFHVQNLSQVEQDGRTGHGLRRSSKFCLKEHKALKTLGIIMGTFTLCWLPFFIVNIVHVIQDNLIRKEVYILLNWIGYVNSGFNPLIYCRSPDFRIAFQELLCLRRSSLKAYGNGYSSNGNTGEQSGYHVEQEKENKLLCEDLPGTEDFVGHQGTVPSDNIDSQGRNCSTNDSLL
LANA-H2A inh – blocks KSHV LANA binding to histone H2A/H2B. 320,000 compounds, 0.6% hits. inhibition, % (test concentration not listed). cell-free LANA-H2A/H2B peptide, fluorescence polarization; in the data active means inhibition mostly above about 10%, no sharp cut-off; inactive means mostly below about 6.7%;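 further: stock transfer was 7.5 nL into about 10 µL; 0% = median of vehicle wells and 100% = median of positive control wells; one replicate is shown; the record names a cut of 25% in any replicate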
T cruzi repl – blocks replication of Trypanosoma cruzi; T. cruzi beta-gal in NIH3T3, luminescence, 90 h; inhibition, % (test concentration not listed); 300,000 compounds, 1.4% hits;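 active means mean inhibition across valid replicates above about 55%, limit read from the data; inconclusive means mean below that limit but half or more replicates reach it; inactive means mean below it, under half of replicates reach it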;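 further: signal also drops with host cell toxicity which is not excluded here; 0% = plate median of DMSO wells and 100% = zero luminescence signal; higher percent means less beta-gal luminescence so fewer parasites; stock transfer was 50 nL into about 50 µL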
Ecoli rRNA inh – inhibits bacterial ribosomal RNA function over humanized ribosomes; AID 720706; 350,000 compounds, 1.6% hits; E. coli WT GFP vs humanized-ribosome RFP mutants, fluorescence, 24 h; stronger effect = lower value; DMSO median 0, no signal -100; GFP signal change (wild-type ribosome), % (test concentration not listed);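 active means significant combined selectivity score with lowered wild-type GFP, culture density cut under 30%, mutant RFP and density less affected; inactive means any of these conditions unmet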; further: one replicate is shown; some compounds called inactive have numbers as strong as hits
ALR H2O2 inh – human ALR oxidase inhibition via reduced H2O2 | P55789 | purified ALR, DTT oxidation, H2O2 HRP-luminol luminescence | inhibition, % (concentration not given with the values) | 290,000 compounds, 3.8% hits;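 active means mean and each replicate at 75% or more; inconclusive means only one of the two met; inactive means neither met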;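 further: stock transfer was 7.5 nL into about 7.5 µL; 0% = neutral wells and 100% = wells with inactivated enzyme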
Target sequence (P55789 whole entry, looked up): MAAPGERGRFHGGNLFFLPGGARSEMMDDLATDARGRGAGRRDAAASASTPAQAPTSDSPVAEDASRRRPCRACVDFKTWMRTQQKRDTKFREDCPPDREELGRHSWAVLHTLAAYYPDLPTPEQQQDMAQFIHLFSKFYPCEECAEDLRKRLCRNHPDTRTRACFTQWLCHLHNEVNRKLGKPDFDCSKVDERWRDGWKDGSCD
Ecoli rRNA inh OD600 – further read-out of Ecoli rRNA inh, marked with its call; OD600 change, %; measured here: OD600 growth;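 optical density of the mix in the first replicate; 0 = DMSO median and -100 = no signal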
Ecoli rRNA inh RFP – second read-out of Ecoli rRNA inh, no call of its own (marks repeat the call); RFP signal change, %; measured here: RFP humanized mutant strains;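 first replicate; 0 = DMSO median and -100 = no signal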
* = called active by the depositor; ? = inconclusive; / = no result given. A portion of the library; the hit share may differ from the screen's.

| smiles | Beta cell apopt | Calb FLC | Bfl-1 A1 inh | Beta2AR agonist | LANA-H2A inh | T cruzi repl | Ecoli rRNA inh | Ecoli rRNA inh OD600 | Ecoli rRNA inh RFP | ALR H2O2 inh |
| --- | --- | --- | --- | --- | --- | --- | --- | --- | --- | --- |
| CCOc1ccc(CN(C)C(=O)CCl)cc1 | 2 | -3 | -0.1 | -7 | -4.4 | 5 | 14 | 15 | 0.4 | -5 |
| CCC(C(=O)NCC1CCCO1)n1nc(C)c2sc3ccccc3c2c1=O (configuration not stated) | 2 | -7 | 0.1 | -4 | 0.8 | 11 | 0 | -1 | -1.5 | -5 |
| Cc1cnc(C(=O)N2CCc3c([nH]c4ccccc34)C2c2ccc(F)cc2)cn1 (configuration not stated) | 11 | ? | 0.4 | 6 | 0.1 | 14 | -4 | -23 | -3.7 | -6 |
| COc1cccc(OC)c1C(=O)Nc1cccnc1 | -5 | -42 | 1.0 | 1 | -3.6 | 3 | 11 | 7 | 1.4 | 5 |
| Cc1c(-c2nc(-c3ccncc3)no2)cccc1[N+](=O)[O-] | -9 | -1 | -0.8 | -7 | -4.5 | 10 | 7 | -2 | 1.7 | -14 |
| COc1ccc(NC(=O)CCN2C(=O)c3ccccc3S2(=O)=O)cc1 | -2 | -2 | 0.2 | -1 | 2.9 | -8 | / | / | / | -63 |
| COc1cc(-c2nnc(SCc3cc(=O)oc4cc(O)c(O)cc34)o2)cc(OC)c1OC | / | 104* | -0.4 | 10 | 2.0 | -22 | / | / | / | / |
| O=C(CC1C(=O)NCCN1Cc1ccc(Cl)c(F)c1)NCCc1cccnc1 (configuration not stated) | -4 | 9 | 0.8 | -2 | 8.5 | -5 | 3 | 5 | 5.2 | -1 |
| CN(C(=O)c1ccc(NC(=O)Cc2ccc(NC(=O)C3CCCN(C(=O)C4CCC4)C3)cc2)cc1)C1CC1 (configuration not stated) | 8 | / | -1.2 | 21 | 4.5 | / | 5 | 2 | 1.7 | -1 |
| COc1ccc(CNC(=O)CCCn2nc(C)c3c(C)n(-c4ccc(C)cc4)nc3c2=O)cc1 | -12 | -12 | -0.3 | 8 | 2.2 | -4 | 7 | 14 | -0.9 | 3 |
| CCc1nnc(NC(=O)c2ccc(S(=O)(=O)N3CCCCCC3)cc2)s1 | -4 | 1 | -0.3 | -3 | -1.9 | 2 | / | / | / | -4 |
| O=C(Nc1nnc(SCCN2CCOCC2)s1)C1CC(=O)N(c2ccccc2)C1 (configuration not stated) | -4 | -5 | -0.4 | -3 | 0.6 | 0 | -1 | -7 | -0.6 | -5 |
| COCCNC(=O)C(OC(=O)c1ccco1)c1ccccc1OC (configuration not stated) | -3 | 14 | ? | -8 | 1.2 | -4 | / | / | / | -11 |
| CC(C)Cc1ccc(/C(=N/O)C(=O)O)s1 | -2 | 3 | 0.4 | -4 | 1.4 | 19 | / | / | / | -2 |
| CCOC(=O)c1cn2nc(-c3ccc(OC)cc3)cc2nc1C1CCN(C(=O)OC(C)(C)C)CC1 | -7 | 2 | -0.8 | 1 | -4.4 | 59* | / | / | / | -1 |
| CCCCC#Cc1ccc(C(=O)NNC(=O)Nc2cc(Cl)cc(Cl)c2)o1 | -4 | -10 | 0.0 | 1 | -1.4 | 10 | -40* | -12* | -5.1* | 1 |
| O=C(O)c1cccc(NC(=O)c2ccc3c(c2)C(=O)N(c2cccc([N+](=O)[O-])c2)C3=O)c1 | 0 | -1 | -0.3 | 4 | -2.8 | -16 | 15 | 12 | -1.4 | 2 |
| COc1cc(OC)c(OC)cc1CN1CCN(C(=O)c2cccc3ccccc23)CC1 | 3 | -38 | 1.8 | 1 | 0.3 | -8 | 9 | 7 | 0.5 | -4 |
| CCCn1nnnc1SCC(=O)Nc1sc(C)c(C)c1C#N | -3 | 0 | -0.6 | / | -0.1 | 15 | / | / | / | 6 |
| Cc1ccc(-c2cc(C(=O)Nc3ccc4c(c3)OCCO4)c3ccccc3n2)cc1 | 28 | -4 | -0.3 | 11 | 3.2 | 14 | / | / | / | -5 |
| COc1ccc(/C=C/C(=O)NC2=NCCS2)cc1OC | -5 | 12 | 0.1 | 2 | 2.0 | -8 | 12 | 8 | -4.3 | -4 |
| CC1CCN(S(=O)(=O)c2ccc(NC(=O)c3ccncc3)cc2)CC1 | 13 | -1 | -1.0 | 2 | -1.7 | 4 | -12 | -11 | 0.2 | -2 |
| CCC1C(C#N)=C(N)OC2=C1C(=O)CC(C)(C)C2 (configuration not stated) | -1 | -6 | 1.0 | 1 | 2.0 | 2 | / | / | / | 4 |
| CCOC(=O)CSc1nc(C)c(C(=O)OCC)s1 | -5 | -6 | 0.0 | -5 | 1.6 | -5 | / | / | / | / |
| Cn1cc(CN2CCc3sccc3C2)c(-c2ccccc2F)n1 | -3 | -29 | 0.7 | -1 | -1.6 | -3 | 7 | 5 | 2.0 | -32 |
| CC(=O)OCCNc1nc(-c2ccccc2)nc2ccccc12 | 0 | 27 | 0.7 | -20 | 3.2 | -15 | 2 | 9 | -1.6 | / |
| CCc1ccc(N(C(=O)c2ccco2)C(C(=O)NC2CCCC2)c2ccncc2)cc1 (configuration not stated) | -6 | -16 | -0.1 | -1 | -0.2 | 7 | 0 | 4 | 1.2 | 0 |
| C=CCNC(=S)N1CCN(S(=O)(=O)c2ccc(C)cc2)CC1 | -3 | 3 | -1.0 | -6 | -0.8 | -11 | -11 | -3 | -10 | -8 |
| Cc1ccccc1NC(=O)CCCC(=O)c1ccccc1 | 0 | 6 | 0.7 | -1 | -6.8 | -9 | 11 | 9 | 0.8 | -2 |
| Fc1ccc(-c2cc(C(F)(F)F)nc(N3CCCCC3)n2)cc1 | 1 | 0 | 0.6 | 6 | 4.2 | 5 | / | / | / | 12 |

Next part
| smiles | Beta cell apopt | Calb FLC | Bfl-1 A1 inh | Beta2AR agonist | LANA-H2A inh | T cruzi repl | Ecoli rRNA inh | Ecoli rRNA inh OD600 | Ecoli rRNA inh RFP | ALR H2O2 inh |
| --- | --- | --- | --- | --- | --- | --- | --- | --- | --- | --- |
| Cc1cccc(N2C(=O)CSC2c2cccnc2)c1 (configuration not stated) | -7 | -3 | -0.1 | 1 | 2.6 | -4 | / | / | / | 99* |
| CN1CCN(Cc2nc3ccccc3c(=O)n2CC#N)CC1 | 3 | -7 | 0.6 | -5 | 0.2 | -21 | 15 | 14 | 0.4 | -2 |
| O=C(NCc1ccccn1)c1ccc(Cn2c(=S)[nH]c3ccc(Br)cc3c2=O)cc1 | 9 | 2 | -0.8 | -14 | 1.7 | 19 | 13 | 12 | -0.8 | 15 |
| CCC(C)(C(=O)NC1CCCCC1)N(C(=O)CNC(C)=O)c1c(C)n(C)n(-c2ccccc2)c1=O (configuration not stated) | -4 | 2 | 0.0 | -4 | 0.0 | 1 | / | / | / | -2 |
| Cc1ccc(C(=O)Nc2ccc(C)c(S(=O)(=O)Nc3ccccc3Cl)c2)s1 | -1 | -11 | -1.7 | 4 | -4.0 | 36 | -32* | -0.2* | -1.7* | -3 |
| CC(=O)Nc1ccc(C(=O)OCC(=O)NC(=O)NC2CCCCC2)cc1 | -19 | 29 | 0.4 | 1 | 3.4 | 10 | / | / | / | -1 |
| COC(=O)C1CCN(c2nc3ccccc3nc2C(C#N)C(=O)NCCc2ccccc2)CC1 (configuration not stated) | -2 | 3 | 0.4 | 6 | 9.7 | 23 | / | / | / | -2 |
| CCCn1c(SCC(=O)Nc2ccccc2-c2ccccc2)nnc1-c1ccoc1C | -8 | -2 | -0.7 | -5 | 0.1 | 0 | / | / | / | -2 |
| CCOc1ccc(NC(=O)C(C)Oc2ccccc2C(=O)Nc2cccc(Cl)c2Cl)cc1 (configuration not stated) | / | -3 | 0.1 | 1 | -6.4 | 26 | / | / | / | 2 |
| COCCN(Cc1ccc(F)cc1)C(=O)c1cc2ccccc2oc1=O | 3 | -34 | 1.0 | 7 | -0.9 | -18 | 10 | 10 | 1.1 | -1 |
| CN(C)CCn1c2c(c(SCC(=O)Nc3cccc4ccccc34)nc1=O)CCCC2 | -7 | 8 | -0.4 | -4 | 0.9 | 24 | 6 | 7 | 0.9 | 20 |
| CCOC(=O)c1nnn(-c2nonc2N)c1CN1CCCC1 | 1 | 3 | -0.4 | -6 | -0.7 | -7 | 8 | 13 | -1.3 | -11 |
| N#Cc1nc(Cc2cccc3ccccc23)oc1N1CCN(c2ccccc2)CC1 | 1 | 15 | -0.4 | 1 | -7.1 | 34 | / | / | / | -6 |
| Cc1cc(OC(=O)c2ccccc2C)c([N+](=O)[O-])c(=O)[nH]1 | -8 | -6 | 0.4 | 4 | -4.1 | -10 | 3 | 7 | 0.9 | 8 |
| O=S(=O)(Nc1ccccn1)c1cnc(Cl)c(Br)c1 | -10 | 16 | 0.5 | 5 | -5.9 | -9 | 14 | 11 | -6.7 | 0 |
| Cn1cnnc1SCC(=O)Nc1nc(-c2ccc(F)cc2)cs1 | -4 | 3 | 0.1 | 1 | -7.0 | -14 | 12 | 4 | -1.8 | -24 |
| c1coc(-c2nnc3n2C2(CCCC2)Cc2ccccc2-3)c1 | -5 | 0 | -1.2 | 5 | 5.6 | 3 | / | / | / | -1 |
| O=C(Nc1ccccc1)C1=C[C@H](C2CCCCC2)C[C@H](OCCCCO)O1 | -4 | 0 | 1.1 | -7 | 1.0 | 21 | 4 | 23 | -3.0 | 24 |
| O=C(NCCN1CCOCC1)C1CCN(Cc2ccccc2O)CC1 | -3 | -4 | ? | 0 | 2.5 | -6 | / | / | / | -2 |
| Cc1ccccc1Oc1nc2c(c(=O)n(C)c(=O)n2C)n1C | -7 | -2 | -2.8 | -3 | -4.5 | -14 | -1 | 8 | 2.0 | -1 |
| CC1=C(C)CS(=O)N(S(=O)(=O)c2ccc(Cl)cc2)C1 (configuration not stated) | 11 | -4 | 0.7 | -8 | -1.3 | -16 | / | / | / | 99* |
| O=C1CCC(=O)N(c2ccccc2)N1 | -4 | 3 | -0.9 | 4 | 4.0 | 2 | 23 | 22 | 0.4 | 7 |
| COc1ccccc1CNC(=O)c1ccoc1C | 2 | -3 | 0.7 | 2 | -0.3 | -11 | / | / | / | 2 |
| CCCCNS(=O)(=O)c1ccc2nc(-c3cccnc3)cc(C(=O)NC3CC3)c2c1 | 1 | -2 | -0.3 | -9 | -3.6 | 7 | 0 | 3 | -1.4 | 7 |
| CCn1c(SC)nnc1C1CCN(CC(=O)Nc2ccccc2N2CCOCC2)CC1 | -13 | 7 | -0.8 | -1 | -8.7 | 11 | 3 | 4 | -1.2 | / |
| Cc1cccc(C(=O)N/N=C2/SCC(=O)N2Cc2ccccc2)c1 | -12 | 6 | 0.9 | -6 | 0.6 | -14 | 1 | 7 | -0.1 | -12 |
| CSc1ccccc1C(=O)NC1CCCc2ccccc21 (configuration not stated) | 0 | 2 | 0.4 | 5 | 1.1 | 6 | -1 | -7 | 1.4 | / |
| Cc1ccc(-n2nc3c(SCCN4CCOCC4)nnc(C)c3c2C)cc1 | -9 | -12 | -0.5 | 4 | -7.1 | 10 | / | / | / | 3 |
| COc1ccccc1Nc1nc(N)nc(CN2CCN(c3ccccc3)CC2)n1 | 3 | 8 | 0.5 | 4 | 1.8 | -3 | / | / | / | 33 |

Compound activity (PubChem)
